Assay outcomes as filed in PubChem.
PINK1 expr mod: A Quantitative High throughput Screen to Identify Chemical Modulators of PINK1 Expression; 410,000 tested, 0.2% active; Potency, µM (series often up to 76.6 µM), without a hit: at the highest dose activation (PINK1 increase), actives largely listed as activators; PINK1 immunofluorescence, high-content cytometry, 24 h; active = well fitted activation curve with a large enough effect; inconclusive = small, poorly fitted or top-dose-only effect; inactive = flat fitted curve, though single readings scatter; cell line not stated here;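 also: % of control where 0% means no effect; nearly all actives have a fitted effect of over 65% in size; a mitochondrial uncoupler was the plate control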
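Compound titrations (5 concentrations, 24 h) on a stable cell line; DMSO and CCCP controls. Endpoint: fixed-cell PINK1 immunofluorescence with mitochondrial, cell and nuclear markers, scanned by microplate cytometer.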
* hit, by the source's call; ? = inconclusive. Potency is read from the fitted curve at half-maximal effect.

| mol | PINK1 expr mod |
| --- | --- |
| CNC1CC(N)[C@H](O)[C@@H](O[C@@H]2OC(CO)C3OC4(OC(C(N)CO)C(O)C(O)C4O)O[C@@H]3[C@H]2O)C1O (stereo not given in full) | -0.3% |
| COC(=O)c1ccccc1-c1cc(C)cc2c1OC(CNC(=O)c1cc(C)n(C)n1)C2 (stereo not given) | -0.2% |
| O=S(=O)(NCCNS(=O)(=O)c1c(F)cccc1F)c1ccc2c(c1)OCCO2 | 0.4% |
| CC(=O)c1ccc(C(=O)N2CCc3c(cnc(C)c3CNC(=O)c3ccc4c(c3)OCO4)C2)s1 | -0.7% |
| COC(=O)c1ccccc1C(=O)N1CCOc2ccc(CN3CCN(c4ccccn4)CC3)cc2C1 | 0.0% |
| COCC1CCCN(Cc2ccc3c(c2)CN(C(=O)c2sc(C)nc2C)CCO3)C1 (stereo not given) | -0.5% |
| Cc1ncc2c(c1CNC(=O)c1ccccc1F)CCN(C(=O)c1ccccc1-n1cccn1)C2 | 0.5% |
| CNc1ccnc(-c2ccccc2CN(C)C)n1 | -1.0% |
| COCCn1c(=O)c(-c2cccc(C#N)c2)nc2cnc(N(C)C)nc21 | 0.7% |
| CC(=O)N1CCC2(CCCN(Cc3ccc(C#N)cc3)C2)CC1 | -0.2% |
| CS(=O)(=O)Nc1cccc(-c2nc(Nc3ccc(F)cc3)c3ccccc3n2)c1 | 3.9% |
| Cc1ncc2c(c1CNC(=O)c1ccccc1F)CCN(C(=O)c1csc(-c3cccs3)n1)C2 | 0.7% |
| COC(=O)c1ccc(CN2CCC3(CCC(CNC(=O)c4ccccc4)O3)CC2)cc1 (stereo not given) | 0.6% |
| Cc1noc(C)c1C(=O)N1CCC2(CCN(C(=O)NC(C)C)CC2)CC1 | 1.3% |
| Cc1nc2ccccc2nc1CN1CCOc2ccc(C(C)(O)COc3ccccc3)cc2C1 (stereo not given) | 1.7% |
| COc1ccccc1C(=O)N[C@@H]1c2ccccc2C2(CCN(Cc3cnn(C)c3C)CC2)[C@H]1O | 0.2% |
| Cc1cnc(CNc2nc(-c3cccc(NS(C)(=O)=O)c3)nc3ccccc23)cn1 | 0.0% |
| COC(=O)N1CCC2(CCCN(C(c3ccccc3)c3ccccc3)C2)CC1 | 0.8% |
| CO[C@H]1[C@H](NC(=O)C(C)C)c2ccccc2C12CCN(Cc1c(C)nn(C)c1Cl)CC2 | 1.0% |
| COC(=O)[C@@H]1CCCN1Cc1ccc2c(c1)CN(Cc1ccc3c(c1)CCO3)CCO2 | 1.6% |
| Cc1noc(C)c1C(=O)N1CCC2(CCCN(C(=O)Nc3ccccc3)C2)CC1 | 1.3% |
| COc1ccccc1-c1cncnc1NCCN1CCOCC1 | 0.7% |
| CN1CCN(c2ncc3nc(CCc4ccccc4)c(=O)n(C)c3n2)CC1 | -0.9% |
| FC(F)(F)c1ccccc1-c1cc(NCCN2CCOCC2)ncn1 | 2.5% |
| O=c1c(-c2cccs2)nc2cnc(N3CCOCC3)nc2n1CCc1ccccc1 | 5.3% |
| N#Cc1cccc(NC(=O)N2CC3(CCN(C(=O)c4cc(C(F)(F)F)cc(C(F)(F)F)c4)CC3)C2)c1 | 1.0% |
| O=c1c(-c2cccc(Cl)c2)nc2cncnc2n1C1CC1 | -0.6% |
| COCCNC(=O)c1cn(C2CCN(C3CCCC3)CC2)nn1 | 0.2% |
| Nc1nc2c(ncn2C2OC(COC(=O)c3ccccc3)C(OC(=O)c3ccccc3)C2OC(=O)c2ccccc2)c(=O)[nH]1 (stereo not given) | ? |
| Cc1c(C(=O)NCC2(N3CCOCC3)CCCC2)cnn1-c1nccc(-c2ccccc2F)n1 | 0.6% |
| O=C(c1ccc2[nH]ccc2c1)N1CCOc2ccc(CN3CCN(c4ccccn4)CC3)cc2C1 | -1.1% |
| NC(=O)C1CCN(c2nc(-c3ccccc3F)cs2)CC1 | 0.5% |

Reformatted as labelled records: 2 of the compounds above.
O=c1c(-c2cccs2)nc2cnc(N3CCOCC3)nc2n1CCc1ccccc1
  PINK1 expr mod = 5.3%

N#Cc1cccc(NC(=O)N2CC3(CCN(C(=O)c4cc(C(F)(F)F)cc(C(F)(F)F)c4)CC3)C2)c1
  PINK1 expr mod = 1.0%

Carrying on.
| mol | PINK1 expr mod |
| --- | --- |
| COc1ccc2c(c1)OC(C)CN(CCNC(=O)c1cc3cc(F)ccc3[nH]1)C2 (stereo not given) | -1.1% |
| CCNc1ncc2nc(-c3ccc(F)cc3)c(=O)n(CCc3ccccc3)c2n1 | 5.9% |
| COc1ccc2[nH]c3c(c2c1)CCNC3=O | -1.9% |
| COc1ccc(-n2c(=O)c(C)nc3cnc(Oc4cccc(Cl)c4)nc32)cc1 | -0.7% |
| COc1ccccc1CNc1ccnc(-c2c(C)noc2C)n1 | 4.0% |
| CCN(Cc1ccncc1)Cc1ccc2c(c1)CN(C(=O)c1ccccc1-n1cccn1)CCO2 | -0.1% |
| COc1ncc2nc(-c3ccc(F)cc3)c(=O)n(C3CC3)c2n1 | 0.1% |
| CN(C)C(=O)c1cc(CNCc2ccc(C(F)(F)F)cc2)cc(NC(=O)c2ccccn2)c1 | -0.9% |
| COCC(=O)N1CCC2(CCCN(c3ncccn3)C2)CC1 | -0.5% |
| Cc1ccc(-c2ccnc(-n3ncc(C(=O)NC[C@@H]4CCCN5CCCC[C@H]45)c3C3CC3)n2)o1 | -0.5% |
| CCN(CC)C1CCN(C(=O)c2cnn(-c3ncc4c(n3)-c3ccccc3CCC4)c2COC)C1 (stereo not given) | -0.5% |
| COc1ccc(C(=O)N2CCC3(CCCN(Cc4ccc(C#N)cc4)C3)CC2)cc1 | 0.8% |
| COc1cc(C)c(CN2CCOc3ccc(C(O)c4cccnc4)cc3C2)cc1C (stereo not given) | 0.1% |
| COC(=O)[C@@H]1CCCN1Cc1ccc2c(c1)CN(Cc1nccs1)CCO2 | 1.3% |
| Cc1cc(=O)oc2cc(O)c(O)cc12 | 0.0% |
| CCNc1ncc2nc(-c3ccc(OC)cc3)c(=O)n(CCOC)c2n1 | 1.8% |
| Nc1ccccc1C(=O)CC(N)C(=O)O (stereo not given) | -0.1% |
| CC(C)=CCC/C(C)=C/CC/C(C)=C/CC/C(C)=C/CC/C(C)=C/CC/C(C)=C/CC/C(C)=C/CC/C(C)=C/CC/C(C)=C/CO | -1.2% |
| COc1cc(=O)n2c(c1C(=O)NCc1ccco1)CCN(Cc1ccccc1)CC2 | -0.6% |
| O=C(c1cnn(-c2nccc(-c3ccccc3C(F)(F)F)n2)c1C1CC1)N1CCN(CCO)CC1 | -0.3% |
| COc1cccc(-c2ccc3ncnc(N(C)C)c3c2)c1 | 4.7% |
| CCn1c(-c2cccnc2)nc2cc(NC(=O)COC)cc(C(=O)N3CCc4ccccc4C3)c21 | -0.3% |
| N#Cc1cccc(NC(=O)N2CCCC3(CCN(S(=O)(=O)c4ccccc4)CC3)C2)c1 | 0.3% |
| O=C(NCC1CCC2(CCN(Cc3ccccc3O)CC2)O1)C1CCCO1 (stereo not given) | 1.5% |
| Cc1csc(CNc2ncnc3ccc(-c4ccoc4)cc23)c1 | -1.1% |
| COc1ccccc1-c1ccc2ncnc(NCCN3CCOCC3)c2c1 | 2.0% |
| CS(=O)(=O)N1CCC2(CCN(c3cccc(-c4ccccc4)c3)CC2)CC1 | 0.6% |
| Cc1ncc2c(c1CNC(=O)c1ccc3c(c1)OCO3)CCN(C(=O)c1ccc3ccccc3c1)C2 | -0.7% |
| Cc1ccccc1-c1nc(N2CCOCC2)c2ccccc2n1 | 1.1% |
| O=c1c(-c2cc(F)cc(F)c2)nc2cnc(N3CCOCC3)nc2n1C1CC1 | 2.1% |
| COc1ccc(OC)c(-c2ccc(O)c(CN3CCc4c([nH]c5ccccc45)C3)c2)c1 | -0.5% |
| COc1ccc(CN2CCCC(n3cc(C(=O)N4CCCCC4)nn3)C2)c(OC)c1 (stereo not given) | 0.7% |
| COc1ncc2nc(-c3ccccc3)c(=O)n(-c3ccccc3)c2n1 | -0.5% |
| COc1ccc(C(=O)N2CCC3(CCN(Cc4ccccc4)CC3)CC2)cc1 | 0.1% |
| COc1ccc(C2=Nn3c(nnc3-c3ccccc3OC)SC2)cc1OCC1CC1 | 4.0% |
| COc1ccc(-n2c(=O)c(C)nc3cnc(Nc4ccccc4)nc32)cc1 | 1.3% |
| CCN(Cc1ccncc1)Cc1ccc2c(c1)CN(C(=O)c1ccccc1)CCO2 | -0.6% |
| O=c1c(-c2ccc(Cl)cc2)nc2cnc(N3CCOCC3)nc2n1-c1ccccc1 | 4.6% |
| O=C(Nc1ccccc1)N1CCCC2(CCN(C(=O)c3cc(C(F)(F)F)cc(C(F)(F)F)c3)CC2)C1 | -0.8% |
| COc1ccccc1-c1ccnc(-n2ncc(C(=O)NCC3(N4CCOCC4)CCCC3)c2C)n1 | 0.9% |
| CN(C)c1ncnc2ccc(-c3ccccc3C(F)(F)F)cc12 | 1.4% |
| O=C(NC1CC1)[C@@H]1C[C@H](Sc2nc3ccccc3[nH]2)CN1CC1CCCCC1 | 0.1% |
| Cc1ccccc1-c1cncnc1Nc1ccc(F)cc1 | 0.9% |
| CC(=O)CCC(=O)N1CCC(n2c(C3CCCO3)nc3cc(C(F)(F)F)ccc32)CC1 (stereo not given) | 0.1% |
| COC(=O)N1CCC2(CCN(C(=O)Nc3ccccc3)CC2)CC1 | -0.6% |
| Cc1ccc(F)cc1S(=O)(=O)NCc1nc(N2CCCC2)c2cccc(C)c2n1 | 0.3% |
| c1ccc(-c2cccc(N3CC[C@@]4(CCCNC4)C3)c2)cc1 | -1.4% |
| Cc1c(C(=O)N2CC3CCC2C3)sc2ncnc(NCCc3c[nH]c4ccccc34)c12 (stereo not given) | -0.2% |

4 compounds out of the list, arranged by molar mass, lowest first:
| mol | PINK1 expr mod |
| --- | --- |
| O=C(NC1CC1)[C@@H]1C[C@H](Sc2nc3ccccc3[nH]2)CN1CC1CCCCC1 | 0.1% |
| COc1ccc(C(=O)N2CCC3(CCCN(Cc4ccc(C#N)cc4)C3)CC2)cc1 | 0.8% |
| COCC1CCCN(Cc2ccc3c(c2)CN(C(=O)c2sc(C)nc2C)CCO3)C1 (stereo not given) | -0.5% |
| CCN(CC)C1CCN(C(=O)c2cnn(-c3ncc4c(n3)-c3ccccc3CCC4)c2COC)C1 (stereo not given) | -0.5% |

More compounds:
| mol | PINK1 expr mod |
| --- | --- |
| COc1ccccc1CN1CC[C@@]2(CCCN(C(=O)c3cc(C(F)(F)F)cc(C(F)(F)F)c3)C2)C1 | 1.3% |
| Cc1cccc(C(=O)O)c1O | -1.2% |
| COc1ccc(C2(C(=O)NCC3Cc4cccc(-c5cccnc5)c4O3)CCCC2)cc1 (stereo not given) | -0.1% |
| COc1ccc(Oc2ncc3nc(-c4cn(C)c5ccccc45)c(=O)n(C4CC4)c3n2)cc1 | 3.9% |
| CC(C)(C)n1ncc2c(=O)n(Cc3cccc(Cn4cnc5c(cnn5C(C)(C)C)c4=O)c3F)cnc21 | -1.9% |
| COc1ccc(-c2nc3cnc(N4CCNCC4)nc3n(-c3ccc(OC)cc3)c2=O)cc1 | 3.8% |
| COc1cccc(-c2nc(NCCc3c[nH]c4ccc(OC)cc34)c3ccccc3n2)c1 | 3.3% |
| O=C(c1cccc(F)c1)N1CCC[C@@]2(CCN(c3ccncc3)C2)C1 | -0.8% |
| O=c1c(-c2ccccc2)nc2cnc(N3CCOCC3)nc2n1-c1ccccc1 | 1.0% |
| CS(=O)(=O)N1CCC[C@@]2(CCN(c3ccccn3)C2)C1 | -1.1% |
| CC(C)CN1CCCC2(CCN(C(=O)c3ccco3)CC2)C1 | 0.2% |
| COc1ncc2nc(-c3ccc(F)cc3)c(=O)n(-c3ccccc3)c2n1 | 0.7% |
| CCN1CCCC1CNC(=O)c1cnn(-c2nccc(-c3ccccc3F)n2)c1C (stereo not given) | 1.0% |
| COC(=O)C1CCCCN1Cc1ccc2c(c1)CN(Cc1cn[nH]c1-c1ccc(F)cc1)CCO2 (stereo not given) | 0.8% |
| Cc1nc2cnc(Oc3ccccc3)nc2n(CCC#N)c1=O | 0.1% |
| O=C(c1cnccn1)N1CCC2(CCCN(c3ccc(-c4ccccc4)cc3)C2)CC1 | -0.1% |
| COc1ccc(CNc2ncnc3ccc(-c4cccc(C#N)c4)cc23)c(OC)c1 | 0.1% |
| COc1cc2nc(N(C)C)c(CNCc3cccc4ccccc34)cc2c(OC)c1OC | -0.5% |
| Cc1ccccc1-c1nc(Nc2ccncc2)c2ccccc2n1 | 8.3% |
| Cc1noc(C)c1-c1cc(NC2CC2)ncn1 | 2.2% |
| Cc1cc(-c2ccnc(-n3ncc(C(=O)NC(C)(C)CO)c3C3CC3)n2)c(C)s1 | 0.1% |
| CCOC(=O)N1CCN(Cc2ccc3c(c2)CN(C(=O)c2ccc4ncccc4c2)CCO3)CC1 | -0.4% |
| COc1cccc(Nc2ncc3nc(CCc4ccccc4)c(=O)n(Cc4cccs4)c3n2)c1 | 28µM* |
| Cc1oc(-c2ccccc2NC(=O)c2ccccc2)nc1CNC(=O)C1CC(=O)OC12CCCCC2 (stereo not given) | 1.2% |
| C=C1C(N)CC2CC1C2(C)C (stereo not given) | -0.7% |
| COc1ncc2nc(-c3cccs3)c(=O)n(CCC#N)c2n1 | -0.6% |
| COc1cccc(Cn2c(=O)c(C)nc3cnc(OCc4ccccc4)nc32)c1 | 0.4% |
| CNc1ccnc(-c2ccccc2C(F)(F)F)n1 | 0.5% |
| CSc1nnc(CCNC(=O)/C=C/c2cccc(F)c2)n1-c1ccc(F)cc1 | 0.0% |
| O=S(=O)(c1ccccc1)N1CCC[C@@]2(CCN(c3ccccc3)C2)C1 | 1.5% |
| O=c1c(-c2cccc(Cl)c2)nc2cncnc2n1Cc1ccccc1Cl | 0.7% |

The list is partial (hit frequency here may not be typical).
